# Compound activity as filed in PubChem BioAssay.
# Mtb hypoxia rep: Mtb hypoxia fluorescent reporter inhibition. fluorescence inhibition, % (concentration not given with the values). AID 1159583. M. tuberculosis hypoxia-regulated fluorescent reporter, fluorescence. actives 0.1% (n = 300,000);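 active means 35 to 45% if threefold the growth effect, above 45% if 1.5-fold the growth effect; inactive means the rest, general growth blockers included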;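 further: wells of about 50 µL received 100 nL stock; 0% = vehicle wells and 100% = reference inhibitor wells; whole bacteria with a GFP reporter of the hypoxia response; strong numbers were not always called active; many hits fall short of the cut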
# ugtP null kill: kills S. aureus RN4220 lacking UgtP; S. aureus RN4220 ugtP deletion, OD600 growth, 16 h; some inactives read as strong as hits; growth inhibition, % (concentration not given with the values); actives 0.54% (n = 330,000);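 active means z-score under -3 and OD600 up to 0.15 on both plates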;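 further: plate controls were untreated wells for no effect and antibiotic for full effect; wells of about 80 µL received 100 nL stock; the first replicate is given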
# PrP 5UTR inh: inhibition of PrP 5' UTR reporter expression | cell-based PrP 5' UTR mRNA reporter, plate reader | actives 0.35% (n = 340,000) | AID 488862 | inhibition, % (no concentration beside the values);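 active means every replicate at 50% or more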;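 further: 0 = median of the neutral control wells; tested in H4 reporter cells; numbers are from one replicate; inactives centre near -14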
# Sa RN4220 lethal: kills Staphylococcus aureus RN4220 | inhibition, % (test concentration not listed) | AID 1259311 | actives 0.33% (n = 330,000) | S. aureus RN4220 growth, OD600, 16 h;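 active means z-score of -3 or lower and OD600 up to 0.18 on both plates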;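 further: plate controls were untreated cells for no effect and reference antibiotic for full effect; stock transfer was 100 nL into about 80 µL; one replicate is shown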
# Autofluor counter: flagged as autofluorescent in microsphere protease counterscreen. fluorescence intensity (test concentration not listed). AID 624483. actives 3.1% (n = 360,000). compound autofluorescence counterscreen, microsphere flow cytometry; hits give high values;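 active means at least 3 SD above the mean of all compounds, about 16000 in these data; inconclusive means too few beads counted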;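 further: 100 nL of 1 mM stock went into each well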
# BJeLR viability: BJeLR cell viability loss. BJeLR (HRASV12) viability, CellTiter-Glo ATP luminescence, 48 h; reference of the scale not given here. inhibition, % (test concentration not listed). actives 0.17% (n = 300,000);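 active means replicate mean above 50%; inconclusive means above 50% but judged a plate artefact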;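 further: 50 nL library stock added to about 25 µL; numbers are from one replicate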
# Mtb hypoxia rep growth: second read-out of Mtb hypoxia rep, no call of its own (marks repeat the call); growth inhibition, %; measured here: M. tuberculosis growth (absorbance);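 0% = vehicle and 100% = reference antibiotic; read after six days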
# Starred values were filed as active, the others as inactive; u = inconclusive; x = not tested or not shown.
1	COc1ccccc1C(=O)OCn1nnc2ccccc2c1=O
2	COc1ccc(CC(=O)Oc2ccc(F)cc2)cc1
3	CC(OC(=O)c1ccc(Cl)nc1)C(=O)Nc1ccc2c(c1)OCO2 (stereo not drawn)
4	COc1ccc(CN2C(=O)c3c(c(C)n(C)c3C)C2C(=O)NC2CCC(C)CC2)cc1 (stereo not drawn)
5	Cc1cccc(Nc2nnc(SCC(=O)NC(=O)Nc3ccc4c(c3)OCCO4)s2)c1
6	Cc1cccc(C)c1NC(=O)NC1CCc2ccccc21 (stereo not drawn)
7	O=[N+]([O-])c1ccc(OCC(O)CN(C2CCCCC2)C2CCCCC2)cc1 (stereo not drawn)
8	C#CCN1C=C(C(=O)OCC)C(C)NS1(=O)=O (stereo not drawn)

assay / compound	1	2	3	4	5	6	7	8
ugtP null kill	-4.2	8.5	-3.7	3.7	x	3.2	6.6	2.8
Mtb hypoxia rep	6.1	16.6	1.1	14.2	x	-2.5	1.2	0.8
Autofluor counter	6852	3523	3965	4156	1999	3753	2027	3492
BJeLR viability	7.0	-4.0	x	-1.8	-12.3	9.0	0.7	x
Sa RN4220 lethal	-14.7	5.2	-0.2	7.5	x	3.7	1.9	3.7
Mtb hypoxia rep growth	12.2	6.1	3.9	1.1	x	2.7	-0.9	0.1
PrP 5UTR inh	-21.2	-18.6	-19.8	-4.8	-8.7	-22.4	3.1	-37.2

9	Cc1cc(C)c(Cn2c(C(=O)O)c(C=O)c3ccccc32)c(C)c1
10	CC1C(c2ccccc2)CC(C(=O)O)C1(C)C (stereo not drawn)
11	COc1ccc(OCCCC(=O)OCC(=O)Nc2nnc(-c3ccccc3)o2)cc1
12	Cc1nc([N+](=O)[O-])cn1CC(=O)Nc1ccc(Cl)cc1
13	O=C(NCC(c1ccco1)N1CCOCC1)c1ccc(C(F)(F)F)cc1 (stereo not drawn)
14	CC(C)c1nc(=S)n(-c2ccccc2)[nH]1
15	Cc1nc(SCC(=O)Nc2ccccc2Cl)oc1C
16	Cc1cc(S(=O)(=O)NCC(c2ccc(F)cc2)N2CCN(C)CC2)ccc1F (stereo not drawn)

assay / compound	9	10	11	12	13	14	15	16
ugtP null kill	7.6	18.3	6.3	0.2	7.8	1.9	-3.9	4.4
Mtb hypoxia rep	11.7	17.1	4.0	-2.6	7.6	2.2	-2.3	5.4
Autofluor counter	4959	x	3735	3078	x	2470	5740	x
BJeLR viability	6.3	x	x	-4.2	6.8	-9.7	0.6	-3.5
Sa RN4220 lethal	6.8	5.5	2.4	1.1	4.2	3.4	1.5	1.2
Mtb hypoxia rep growth	10.3	5.4	5.8	6.0	-2.5	9.9	4.9	5.4
PrP 5UTR inh	-22.1	x	-5.6	-23.2	-10.9	-12.6	-18.8	-10.6

17	CC(=O)c1cc(CN2CCC(n3nccc3NC(=O)c3ccccc3)CC2)cs1
18	CN(C)C(=O)COc1ncnc2scc(-c3ccc(F)cc3)c12
19	CCOC(=O)C(Oc1ccc2c(-c3ccc(OC)cc3)cc(=O)oc2c1C)c1ccccc1 (stereo not drawn)
20	O=S(=O)(Nc1ncccn1)c1ccccc1
21	Nc1c(-c2ccccc2)sc2ccc3ccccc3[n+]12
22	CC(=O)C1=C(O)C(=O)N(Cc2ccccc2)C1c1ccccc1F (stereo not drawn)
23	COc1ccc(C(=O)C2CCCN(C(=O)CCc3scnc3C)C2)c(C)c1 (stereo not drawn)
24	COC/C=C/C1=CC2=CC(=O)C(C)(OC(=O)c3cnc4ccccc4n3)C(=O)C2=CN1c1ccc(OC)cc1 (stereo not drawn)

assay / compound	17	18	19	20	21	22	23	24
ugtP null kill	5.6	5.2	-0.3	11.7	7.5	3.1	2.0	x
Mtb hypoxia rep	12.0	-1.5	-5.3	7.8	4.8	x	-3.1	x
Autofluor counter	4849	4005	22308*	x	4737	2387	4334	3409
BJeLR viability	-3.2	-2.5	-3.6	4.8	-5.4	2.5	1.2	-8.2
Sa RN4220 lethal	-1.7	8.2	-6.2	3.4	8.2	4.3	1.3	x
Mtb hypoxia rep growth	9.2	5.5	17.6	4.7	-8.5	x	14.9	x
PrP 5UTR inh	-39.0	-25.8	-11.6	-16.4	-12.5	-16.3	-23.5	-15.3

25	CC(=O)c1ccc(NC(=O)N2CCN(c3cccc(Cl)c3)CC2)cc1
26	Cn1c(=O)cc(OCCCC(=O)NCc2cccnc2)c2ccccc21
27	CC[C@H]1OC(=O)[C@H](C)[C@@H](O[C@H]2C[C@@](C)(OC)[C@@H](O)[C@H](C)O2)[C@H](C)[C@@H](O[C@@H]2O[C@H](C)C[C@H](N(C)C)[C@H]2O)[C@](C)(O)C[C@@H](C)C(=O)[C@H](C)[C@@H](O)[C@]1(C)O
28	Nc1cc(S(=O)(=O)N2CCCCC2)ccc1Oc1ccccc1
29	CC(=O)c1ccc(C(=O)N2CCCC(C(=O)c3ccc(Cl)cc3)C2)s1 (stereo not drawn)
30	CC(C)(C)N1C(=O)NC(=O)/C(=C\c2ccc3c(c2)CCN3CCCCl)C1=O
31	Cc1ccc2c(c1)N(C(C)C(=O)NCc1ccc3c(c1)OCO3)C(=O)CO2 (stereo not drawn)
32	Cc1ccccc1Cn1cc(NC(=O)COc2ccccc2)cn1

assay / compound	25	26	27	28	29	30	31	32
ugtP null kill	-7.6	1.5	x	-9.7	6.3	-1.3	-9.1	0.4
Mtb hypoxia rep	10.9	-4.3	x	-8.5	15.1	7.7	-2.8	x
Autofluor counter	4276	2183	5782	4952	5182	u	4198	4997
BJeLR viability	3.1	-3.1	6.6	4.6	5.9	-2.8	14.6	-3.1
Sa RN4220 lethal	1.2	5.5	x	-2.6	-1.5	3.4	6.1	-9.1
Mtb hypoxia rep growth	11.1	2.5	x	2.0	10.2	11.4	-1.7	x
PrP 5UTR inh	-9.5	-8.0	-26.6	-55.8	-14.5	-35.5	-60.8	-16.4

# A portion from further up, for reference:
20	O=S(=O)(Nc1ncccn1)c1ccccc1
21	Nc1c(-c2ccccc2)sc2ccc3ccccc3[n+]12
22	CC(=O)C1=C(O)C(=O)N(Cc2ccccc2)C1c1ccccc1F (stereo not drawn)
23	COc1ccc(C(=O)C2CCCN(C(=O)CCc3scnc3C)C2)c(C)c1 (stereo not drawn)
24	COC/C=C/C1=CC2=CC(=O)C(C)(OC(=O)c3cnc4ccccc4n3)C(=O)C2=CN1c1ccc(OC)cc1 (stereo not drawn)
25	CC(=O)c1ccc(NC(=O)N2CCN(c3cccc(Cl)c3)CC2)cc1
26	Cn1c(=O)cc(OCCCC(=O)NCc2cccnc2)c2ccccc21
27	CC[C@H]1OC(=O)[C@H](C)[C@@H](O[C@H]2C[C@@](C)(OC)[C@@H](O)[C@H](C)O2)[C@H](C)[C@@H](O[C@@H]2O[C@H](C)C[C@H](N(C)C)[C@H]2O)[C@](C)(O)C[C@@H](C)C(=O)[C@H](C)[C@@H](O)[C@]1(C)O
28	Nc1cc(S(=O)(=O)N2CCCCC2)ccc1Oc1ccccc1
29	CC(=O)c1ccc(C(=O)N2CCCC(C(=O)c3ccc(Cl)cc3)C2)s1 (stereo not drawn)

assay / compound	20	21	22	23	24	25	26	27	28	29
ugtP null kill	11.7	7.5	3.1	2.0	x	-7.6	1.5	x	-9.7	6.3
Mtb hypoxia rep	7.8	4.8	x	-3.1	x	10.9	-4.3	x	-8.5	15.1
Autofluor counter	x	4737	2387	4334	3409	4276	2183	5782	4952	5182
BJeLR viability	4.8	-5.4	2.5	1.2	-8.2	3.1	-3.1	6.6	4.6	5.9
Sa RN4220 lethal	3.4	8.2	4.3	1.3	x	1.2	5.5	x	-2.6	-1.5
Mtb hypoxia rep growth	4.7	-8.5	x	14.9	x	11.1	2.5	x	2.0	10.2
PrP 5UTR inh	-16.4	-12.5	-16.3	-23.5	-15.3	-9.5	-8.0	-26.6	-55.8	-14.5

30	CC(C)(C)N1C(=O)NC(=O)/C(=C\c2ccc3c(c2)CCN3CCCCl)C1=O
31	Cc1ccc2c(c1)N(C(C)C(=O)NCc1ccc3c(c1)OCO3)C(=O)CO2 (stereo not drawn)

assay / compound	30	31
ugtP null kill	-1.3	-9.1
Mtb hypoxia rep	7.7	-2.8
Autofluor counter	u	4198
BJeLR viability	-2.8	14.6
Sa RN4220 lethal	3.4	6.1
Mtb hypoxia rep growth	11.4	-1.7
PrP 5UTR inh	-35.5	-60.8

# Continuation:
33	COC(=O)c1cccc(-n2[nH]nnc2=S)c1
34	CCOc1ccc(C(=O)NCC(=O)OCC(=O)Nc2nnc(-c3ccccc3)o2)cc1
35	Clc1ccc(CSC(Cn2ccnc2)c2ccc(Cl)cc2Cl)cc1 (stereo not drawn)
36	CN1CCCN(C(=O)c2cc(=O)[nH]c3ccccc23)c2nc3ccccc3nc21
37	O=C(CSc1nnc(CNC(=O)c2c(F)cccc2F)o1)Nc1ccc2c(c1)OCO2
38	CC1CN=C(Nc2ccccc2)N1CC1CCCCC1 (stereo not drawn)
39	O=[N+]([O-])c1cc(-c2ccc(/C=N/n3cnnc3)o2)ccc1Cl
40	CCCCSc1nc2sc3c(c2c(=O)n1-c1ccc(C)cc1)CCN(C)C3

assay / compound	33	34	35	36	37	38	39	40
ugtP null kill	-2.3	0.6	84.9	2.7	2.6	0.4	x	84.0
Mtb hypoxia rep	0.7	8.6	x	0.9	-3.0	5.5	x	-5.5
Autofluor counter	9348	4288	5679	4034	5889	x	4175	4975
BJeLR viability	-3.5	x	-0.2	-1.4	4.6	x	-7.4	1.3
Sa RN4220 lethal	4.4	1.3	97.4*	4.2	0.7	2.3	x	-3.5
Mtb hypoxia rep growth	8.6	9.5	x	11.5	-3.6	5.8	x	5.1
PrP 5UTR inh	-19.5	-6.4	-1.0	-15.5	6.5	x	-11.5	-24.9

41	Cc1cc(C)n(CCCN2C(=O)c3cccc4cccc(c34)C2=O)n1
42	CN1CCN(C2=C(Cl)C(=O)N(c3ccc(Cl)c(Cl)c3)C2=O)CC1
43	CCOc1ccc2oc(C(=O)N(CC)CC(=O)Nc3c(F)cccc3F)c(C)c2c1
44	O=C(O)c1cc([N+](=O)[O-])ccc1N1CCC(Cc2ccccc2)CC1
45	CCCCc1c(C)nc2cc(-c3ccco3)[nH]n2c1=O
46	CCCOc1ccc(CNC(=O)Cc2cccs2)cc1
47	Cc1cc(Nc2ccccc2C(=O)O)nc2nc3ccccc3c(=O)n12
48	CN(c1ccccc1C(N)=O)S(=O)(=O)c1ccccc1

assay / compound	41	42	43	44	45	46	47	48
ugtP null kill	3.9	5.1	9.2	9.9	3.6	8.9	-6.7	3.9
Mtb hypoxia rep	6.3	11.1	-3.4	8.5	15.2	15.8	12.1	x
Autofluor counter	2594	3327	6774	2515	3470	3719	16916*	4345
BJeLR viability	-1.3	-28.0	-12.0	0.9	2.3	3.0	-3.8	-8.6
Sa RN4220 lethal	6.6	3.9	-1.8	-1.9	1.5	0.4	3.4	6.3
Mtb hypoxia rep growth	10.9	6.8	-0.5	3.8	10.9	16.6	14.5	x
PrP 5UTR inh	-17.9	2.5	-17.6	-8.1	-28.8	27.1	-10.3	-23.8

49	COc1ccc(S(=O)(=O)N2CCN(CC(=O)c3[nH]c(C)c(C(C)=O)c3C)CC2)cc1OC
50	Cc1ccc(N2C(=O)NC(=O)/C(=C/c3cnn(-c4ccc(C)cc4)c3)C2=O)cc1
51	C/C(=N/Oc1nc(C)cc(C)n1)c1ccc(F)cc1
52	Cc1ccc(-n2nc(C)c3c(C)c(CCC(=O)O)c(C)nc32)cc1
53	N#Cc1c(N2CCOCC2)nsc1-c1ccccc1
54	C=C1CSc2nc(=O)c3c(C)c(C)sc3n21
55	C#CCOCCOCCOCCNc1nc(N2CCOCC2)nc(N2CCN(C(=O)C(Cc3ccc(O)cc3)n3cc(C(N)CC(C)C)nn3)CC2)n1 (stereo not drawn)
56	CC(=O)c1cc(C#N)c(N(C)Cc2ccccc2)nc1C

assay / compound	49	50	51	52	53	54	55	56
ugtP null kill	3.0	x	x	6.6	5.4	6.9	0.6	-0.4
Mtb hypoxia rep	15.5	x	x	15.3	-1.7	0.4	-0.9	11.0
Autofluor counter	3570	2744	2447	3810	4388	4672	x	3603
BJeLR viability	x	-2.6	6.9	-0.9	-4.2	3.3	x	3.5
Sa RN4220 lethal	3.3	x	x	5.1	9.1	2.1	2.2	15.4
Mtb hypoxia rep growth	5.3	x	x	9.0	5.4	11.8	5.9	16.9
PrP 5UTR inh	-9.8	-29.0	-26.9	-44.3	-45.4	-17.4	x	-14.9
